# Compound activity deposited in PubChem by National Center for Advancing Translational Sciences (NCATS).
# Cruzain Triton – qHTS Assay for Promiscuous and Specific Inhibitors of Cruzain (with detergent) | Cruzipain (Trypanosoma cruzi), P25779 | purified cruzain, Z-FR-AMC fluorescence, 0.01% Triton | Potency, µM, for inactives: max response, negative = inhibition, hits mostly inhibitors | 0.43% of 200,000 active | AID 1478, 2009; active = well fitted curve in the direction sought with a large enough effect; inconclusive = small, poorly fitted or top-dose-only effect, or another doubt; inactive = no such curve, though single readings can be large; an effect the other way counts as inactive or inconclusive;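 also: plate controls were neutral wells for no effect and buffer without enzyme for full effect; nearly all actives have a fitted effect of over 40% in size; top concentration of the series not given in the record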
# Target sequence (P25779 123-467 limits assumed): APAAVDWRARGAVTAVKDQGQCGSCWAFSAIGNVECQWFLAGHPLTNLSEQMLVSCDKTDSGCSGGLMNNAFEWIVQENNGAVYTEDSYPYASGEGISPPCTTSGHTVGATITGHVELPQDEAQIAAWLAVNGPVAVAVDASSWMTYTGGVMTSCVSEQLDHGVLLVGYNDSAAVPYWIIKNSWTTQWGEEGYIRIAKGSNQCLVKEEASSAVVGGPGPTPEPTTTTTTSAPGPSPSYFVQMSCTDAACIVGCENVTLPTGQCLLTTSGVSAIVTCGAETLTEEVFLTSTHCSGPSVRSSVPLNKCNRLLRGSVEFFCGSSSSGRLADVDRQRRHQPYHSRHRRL
#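 In this qHTS format, compounds are incubated with 1.5 nM cruzain for 15 min at room temperature before 2 uM Z-FR-AMC is added. Release of AMC is followed at 360/450 nm, and progress is taken as the 60 s fluorescence difference.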
# Cruzain inh noDet – qHTS Assay for Promiscuous and Specific Inhibitors of Cruzain (without detergent); purified cruzain, Z-FR-AMC fluorescence, no detergent; Cruzipain (Trypanosoma cruzi), P25779; 2.3% of 200,000 active; AID 1476, 2009; Potency, µM, for inactives: max response, negative = inhibition, actives largely listed as inhibitors; active = well fitted curve in the direction sought with a large enough effect; inconclusive = small, poorly fitted or top-dose-only effect, or another doubt; inactive = no such curve, though single readings can be large; an effect the other way counts as inactive or inconclusive;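 also: plate controls were enzyme without inhibitor for no effect and buffer without enzyme for full effect; nearly all actives have a fitted effect of over 40% in size; top concentration of the series not given in the record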
#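 Detergent-free condition (0.00005% Triton X-100) in acetate buffer pH 5.5 with DTT. 1.5 nM enzyme and compound were pre-mixed 15 min, then 2 uM Z-FR-AMC substrate added; reaction progress from fluorescence change between first and third reads (60 s).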
# RE007 growth inh – qHTS Assay for Inhibitors of the HIV-1 protein Vpr; AID 651644, 2012; S. pombe RE007 Vpr strain, BacTiter-Glo ATP luminescence, 24 h; control for the full effect not named in the record; 0.21% of 360,000 active; Potency, µM (titrated, usually from 92.2 µM), without a hit: at the top dose activity change, negative = less growth; active = well fitted falling curve with a large enough effect; inconclusive = small, poorly fitted or top-dose-only effect; inactive = no such curve, though single readings can be large or run the other way;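 also: % is scaled to controls: 0 for no effect and ±100 for the full control effect; nearly all actives have a fitted effect of over 50% in size; the assay follows cell death caused by Vpr and the record does not say whether a fall means rescue or toxicity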
#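 Fission yeast RE007 carrying one integrated HIV-1 vpr copy, seeded at OD 0.01 in PMG+AL medium with 23 nL pinned compound. Grown 24 h at 30 degrees; viability read by BacTiter-Glo luminescence after 5 min.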
# LASV entry inh – qHTS for Inhibitors of binding or entry into cells for Lassa Virus; Lassa virus pseudotype entry inhibition, cell reporter; control for the full effect not named in the record; Potency, µM (doses to about 37.9 µM), inactives show at the highest dose activity change, negative = inhibition, usual class: inhibitors; 1.2% of 300,000 active; AID 540256, 2011; active means well fitted inhibition curve with a large enough effect; inconclusive means small, poorly fitted or top-dose-only effect, or effect the other way; inactive means flat fitted curve, though single readings scatter; tested in HEK293 cells; also: % is scaled to controls: 0 for no effect and ±100 for the full control effect; nearly all actives have a fitted effect of over 50% in size; luciferase read-out
# StopGo reporter – High Throughput Screening for Foot and Mouth Disease Virus Antivirals; Potency, µM (series often up to 57.9 µM), for inactives: at the highest dose signal change, negative = less light; human cells with a luciferase reporter of 2A StopGo recoding; control for the full effect not named in the record; 1.2% of 410,000 active; active = well fitted falling curve with a large enough effect; inconclusive = small, poorly fitted or top-dose-only effect; inactive = no such curve, though single readings can be large or run the other way; tested in HEK293T cells; also: % is scaled to controls: 0 for no effect and ±100 for the full control effect; nearly all actives have a fitted effect of over 45% in size; luciferase light after 4 h
# NS1 inh – qHTS Assay for Inhibitors of Influenza NS1 Protein Function. S. cerevisiae slowed by influenza A NS1, growth recovery by OD600. Potency, µM (highest dose often 46.1 µM), inactives show at the highest dose activity, positive = more growth. 0.4% of 270,000 active. AID 2326, 2010; also: actives are rising curves; nearly all actives have a fitted effect of over 50% in size
#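 S. cerevisiae expressing influenza A NS1, grown in glucose, washed, then diluted 1:100 into pH 6.0 -URA galactose medium with 23 nl compound. Growth recovery read as OD600; NS1-free strain serves as control.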
# Marburg entry inh – qHTS for inhibitors of binding or entry into cells for Marburg Virus; Marburg virus pseudotyped entry inhibition, cell reporter; control for the full effect not named in the record; about a third of the inactives were read at about 46 µM; Potency, µM (highest dose often 37.8 µM), for inactives: at the top dose activity change, negative = inhibition, usual class: inhibitors; 1.8% of 300,000 active; active = well fitted inhibition curve with a large enough effect; inconclusive = small, poorly fitted or top-dose-only effect, or effect the other way; inactive = flat fitted curve, though single readings scatter; tested in HEK293 cells; about a fifth of its hits are not listed in these tables; also: % is scaled to controls: 0 for no effect and ±100 for the full control effect; luciferase read-out
# SARS PLP yeast – qHTS of Yeast-based Assay for SARS-CoV PLP; AID 485353, 2010; S. cerevisiae expressing SARS-CoV PLpro, growth rescue; control for the full effect not named in the record; 0.19% of 330,000 active; Potency, µM (titrated, usually from 32.9 µM), inactives show at the top dose activity, positive = growth rescue; also: 0% is about no effect; nearly all actives have a fitted effect of over 55% in size; growth read by luminescence after 48 h
# An asterisk follows results filed as active; ? = inconclusive; nt = no result given; & = joins results of further samples; [ ] = dose if it differs, or a comment. Unless noted, calls follow the shape of the dose curve; as a rule, active means well fitted rising curve with a large enough effect; inconclusive means small, poorly fitted or top-dose-only effect; inactive means no such curve, though single readings can be large or run the other way. Potency is read from the fitted curve at half-maximal effect.
SMILES,Cruzain Triton,Cruzain inh noDet,RE007 growth inh,LASV entry inh,StopGo reporter,NS1 inh,Marburg entry inh,SARS PLP yeast
CC(C)CC(OC(=O)CC1Sc2ccccc2NC1=O)C(=O)NC1CCCC1 (stereo not given),nt,nt,3%,-8%,10%,-5%,-13%[46.1 µM],-1%
O=C(O)c1ccccc1N1C(=O)C2C3c4ccccc4C(Br)(c4ccccc43)C2C1=O (stereo not given),nt,nt,-8%,nt,-21%,11%,nt,0%
CCOc1ccc(S(=O)(=O)N2CCC(C(=O)Nc3cccc(NC(C)=O)c3)CC2)cc1,nt,nt,-2%,4%,-16%,-15%,-23%[46.1 µM],-3%
Cc1nn(-c2ccccc2)c(C)c1S(=O)(=O)O,nt,nt,-1%,4%[46.1 µM],-2%,5%,9%[46.1 µM],-1%
CC1CCCC(NC(=O)c2cc(S(=O)(=O)N3CCOCC3)ccc2F)C1C (stereo not given),nt,nt,-9%,nt,-10%,-2%,nt,-1%
Cc1cccc(NC(=O)CN2C(=O)COc3ccc(Cl)cc32)c1C,4.9%,-16%,7%,nt,-4%,4%,0%,-9%
Cc1ccc(NC(=O)C2CCN(S(=O)(=O)c3cccs3)CC2)cc1C,0.0%,-10%,17%,-17%,?,-1%,?,5%
COc1cc(OC)cc(-c2nnc(Sc3ccc(C=O)cc3[N+](=O)[O-])o2)c1,-3.1%,0%,nt,nt,nt,-10%,-1%,-7%
C=CCn1c(O)c(N=NC(=S)Nc2ccc(OC)c(Cl)c2)c2ccccc21,-3.0%,10µM*,5%,?,-4%,3%,?,-20%
CCOc1ccc(C(NC(=O)/C=C/c2ccco2)c2ccc(OC)c(OC)c2)cc1 (stereo not given),-7.3%,?,-9%,1%,0%,-21%,-3%,-15%

# Overlap with the part before: 3 compounds; new compounds follow.
SMILES,Cruzain Triton,Cruzain inh noDet,RE007 growth inh,LASV entry inh,StopGo reporter,NS1 inh,Marburg entry inh,SARS PLP yeast
COc1cc(OC)cc(-c2nnc(Sc3ccc(C=O)cc3[N+](=O)[O-])o2)c1,-3.1%,0%,nt,nt,nt,-10%,-1%,-7%
C=CCn1c(O)c(N=NC(=S)Nc2ccc(OC)c(Cl)c2)c2ccccc21,-3.0%,10µM*,5%,?,-4%,3%,?,-20%
CCOc1ccc(C(NC(=O)/C=C/c2ccco2)c2ccc(OC)c(OC)c2)cc1 (stereo not given),-7.3%,?,-9%,1%,0%,-21%,-3%,-15%
Cc1ccc(OCc2ccc(-c3nc(C#N)c(NCc4ccccc4Cl)o3)o2)cc1,-0.1%,-9%,nt,-29%[46.1 µM],-16%,nt,-25%[46.1 µM],nt
CCC(CO)NCc1ccc(OC2CCCC2)cc1 (stereo not given),0.4%,-13%,-2%,-18%,2%,-7%,?,-7%
O=C(c1ccsc1)N1CCCC(N2CCN(c3ccccc3F)CC2)C1 (stereo not given),nt,nt,9%,1%,-6%,4%,-1%,-3%
COc1ccc(C)cc1S(=O)(=O)Nc1cccnc1,5.9%,1%,4%,?,74%[activator],2%,26%,11%
CCOC(=O)CSc1nc(C2CC2)cc(-c2ccc(Cl)cc2)c1C#N,-9.2%,-1%,nt,-14%,-31%,-2%,-1%,2%
COc1ccc(NC(=O)Cc2ccc(NC(=O)N3CCCCc4ccccc43)cc2)c(OC)c1,-5.2%,-13%,nt,-16%[46.1 µM],-20%,nt,nt,nt
O=C(O)c1ccc(-n2c(/C=C/c3cccc([N+](=O)[O-])c3)nc3ccccc3c2=O)cc1,nt,nt,2%,nt,?,1%,nt,2%
O=C(c1ccc(OCC2CCCO2)cc1)N1CCN(S(=O)(=O)c2cccc(F)c2)CC1 (stereo not given),nt,nt,1%,-3%,-18%,nt,1%,0%
Cc1cccc(N2CN=c3s/c(=C\c4ccccn4)c(=O)n3C2)c1,nt,nt,-21%,12%,34%[activator],-1%,?,1%
COc1cccc(CC2(CO)CCN(C(=O)NC3CCCCC3)CC2)c1,nt,nt,7%,-20%[46.1 µM],-7%,0%,3%[46.1 µM],-1%
O=S1(=O)N=C(Nc2ccc(S(=O)(=O)N3CCCCC3)cc2)c2ccccc21,-14%,-2%,16%,-1%,71%[activator],9%,-25%,4%
O=c1oc2ccccc2c(NC2CCCCC2)c1NS(=O)(=O)c1ccc(F)cc1,nt,nt,2%,nt,-5%,24%,nt,4%
CC(=O)NCCc1ccc(C(=O)COC(=O)C2CCCCC2)cc1,nt,nt,1%,6%[46.1 µM],0%,nt,?,-5%
CCCN(C(=O)c1ccco1)c1nnc(-c2ccncc2)s1,-4.6%,0%,-1%,8%,4%,-8%,5%,-26%
CC1=C(c2ccc(C)c(C)c2)S(=O)(=O)N=C1N1CCN(c2cccc(C)c2)C(C)C1 (stereo not given),-5.4%,-8%,nt,16%[46.1 µM],?,nt,-4%[46.1 µM],nt
CCN1CCN(C(=O)c2sc3nc(C)nc(N4CCC(C)CC4)c3c2C)CC1,-1.9%,-4%,-1%,?,-20%,-10%,25%,4%
CCN(C(=O)COC(=O)/C=C/c1cccc(Br)c1)C1CCS(=O)(=O)C1 (stereo not given),nt,nt,0%,2%,?,-10%,?,-8%
Cc1noc(/C=C/c2ccco2)c1S(=O)(=O)N1CCC(C(=O)N2c3ccccc3CC2C)CC1 (stereo not given),-3.1%,?,-24%,-29%,-5%,1%,8%,16%
N#Cc1c(-c2ccco2)nc(NCC2CCCO2)[nH]c1=O (stereo not given),0.8%,-5%,8%,-2%,-14%,-1%,11%,2%
CCc1ccc2oc(-c3cc(N=Cc4cccc(OC)c4O)ccc3O)nc2c1,-9.8%,16µM*,-11%,6.5µM*,-43%,1%,?,-3%
Cc1ccc2nc(-c3ccsc3)c(NC3CCCC3)n2c1,nt,nt,-27%,2%,-8%,nt,6%[46.1 µM],0%
Cc1nc2scc(-c3ccco3)c2c(=O)n1/N=C/N(C)C,-3.3%,0%,-11%,-8%,nt,6%,?,2%
Cn1c(SCC(=O)Nc2ccccc2)nc(O)cc1=O,-3.7%,-11%,11%,-5%,-4%,?,11%,4%
CC1CN(CC(=O)Nc2nc(-c3ccc(Cl)cc3)cs2)CC(C)O1 (stereo not given),nt,nt,-11%,?,?,nt,?,nt
CN(Cc1ccccc1)c1nc(-c2ccc(F)cc2)cc(C(F)(F)F)n1,1.2%,-2%,nt,0%[46.1 µM],-23%,nt,20%[46.1 µM],nt
CCc1nnc(NC(=O)[C@@H](NC(=O)c2cc(OC)cc(OC)c2)C(C)C)s1,nt,nt,4%,-3%,-8%,2%,23%,0%
COCCn1c(C)cc(C(=O)COC(=O)c2cncc(Br)c2)c1C,-8.8%,1%,-14%,0%,-6%,-4%,?,-22%
COc1cccc(C(C(=O)NC(C)(C)C)N(C(=O)CCC(=O)Nc2cc(C)on2)C2CC2)c1OC (stereo not given),1.7%,13%,6%,1%,-5%,-13%,18%&18%,21%
Cc1onc(NC(=O)c2ccc([N+](=O)[O-])o2)c1Br,nt,nt,-12%,?,-8%,-31%,?,-5%
NC(N)=NC(N)=NCCc1ccccc1,3.3%&0.1%&-1.6%,2%&3%&-2%,1%,-13%,-23%,12%,-37%&-37%&-37%&-37%&-37%&-37%,-1%

# Profiles from above. Order of screens: Cruzain Triton, Cruzain inh noDet, RE007 growth inh, LASV entry inh, StopGo reporter, NS1 inh, Marburg entry inh, SARS PLP yeast
# Cc1cccc(NC(=O)CN2C(=O)COc3ccc(Cl)cc32)c1C in the list: 4.9%, -16%, 7%, nt, -4%, 4%, 0%, -9%
# NC(N)=NC(N)=NCCc1ccccc1 in the list: 3.3%&0.1%&-1.6%, 2%&3%&-2%, 1%, -13%, -23%, 12%, -37%&-37%&-37%&-37%&-37%&-37%, -1%
# CCOc1ccc(S(=O)(=O)N2CCC(C(=O)Nc3cccc(NC(C)=O)c3)CC2)cc1 in the list: nt, nt, -2%, 4%, -16%, -15%, -23%[46.1 µM], -3%

# Going on with the list:
SMILES,Cruzain Triton,Cruzain inh noDet,RE007 growth inh,LASV entry inh,StopGo reporter,NS1 inh,Marburg entry inh,SARS PLP yeast
CCn1c(COc2cccc(C)c2)nnc1SCC(=O)CC(=O)Nc1ccccc1OC,-15%,?,-1%,?,-3%,14%,5%,4%
Cc1cccn2c(=O)c3cc(C(=O)N4c5ccccc5CC4C)n(C)c3nc12 (stereo not given),0.4%,4%,-13%,0%,-26%,-1%,-14%&-14%,0%
CCOC(=O)c1c(C)[nH]c2c1cc(O)c1ccccc12,-9.6%,-23%,-16%,12%,nt,1%,?,-6%
CC1(C)Cc2c(sc(NC(=O)c3ccc4c(c3)OCCO4)c2C(N)=O)C(C)(C)N1,nt,nt,1%,?,-10%,-7%,?,-1%
N#C/C(=C\c1ccc[nH]1)C(=O)c1ccccc1,nt,nt,?,-9%[46.1 µM],35%[activator],-3%,?,-3%
Cc1cccc(C)c1OCc1cc(C(=O)N2CCN(C3CCCC3)CC2)no1,nt,nt,-25%,-25%,26%,-12%,-9%,-1%
CCOc1cc(/C=N/NC(=O)c2ccc(CN3CCOCC3)cc2)ccc1OCc1ccccc1,-11%,11%,-24%,?,22µM*,-40%,?,-1%
CCn1c(CNC(=O)c2ccccc2OC)nnc1SCC(=O)c1ccc(F)cc1,nt,nt,-13%,2%,-9%,-6%,10%[46.1 µM],13%
Clc1ccccc1OCCn1ccnc1,9.9%,4%,12%,0%,-13%,-3%,0%,nt
COCCCN1C(=O)C(=O)/C(=C(/O)c2ccc(OC)cc2)C1c1cccc(OC)c1 (stereo not given),2.6%,-6%,6%,12%,-5%,-1%,-1%,-1%
CCOC(=O)c1c(NC(=O)COC(=O)c2ccc(O)cc2)sc(C(=O)NC)c1C,nt,nt,-6%,1%,-21%,nt,-8%[46.1 µM],nt
Cc1cc(C)c(C#N)c(SCC(=O)N2CCCCC2)n1,8.9%,0%,11%,-7%,1%,-45%,-27%&-27%,-4%
